YopH inh – inhibitors of Yersinia enterocolitica YopH tyrosine phosphatase | fluorescence Ex485/Em525 | inhibition, %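 (about 10 µM by stock and volumes)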 | actives 0.16% (n = 140,000) | AID 898;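 active means inhibition of 50% or more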;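 further: controls were vehicle for no effect and minimum signal wells for full effect; inactives centre near -20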
Mtb bLac sens – beta-lactam sensitization of Mtb H37Rv; actives 0.27% (n = 330,000); M. tuberculosis H37Rv growth with meropenem, percent inhibition; hits of this screen are not shown here; AID 434955; inhibition, % at 25 µM;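 active means about 74% or more and at least 40 points above the plate without the antibiotic, then above 30% in a dose series; inconclusive means first-round hits that could not be retested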;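 further: growth measured after seven days incubation then overnight dye step; 0% = bacteria only wells and 100% = bacteria with antibiotic; twin plates without the antibiotic show which effects depend on it; some results filed as inactive read as strong as hits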
Arbovirus inh – arbovirus infection inhibition | arbovirus infection cell-based antiviral screen | inhibition, % at 10 µM | actives 0.37% (n = 200,000);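 active means inhibition from about 30%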;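 further: bluetongue infection of BSR cells; cell survival read as ATP light after 72 h; 0% = infected wells without compound and 100% = uninfected wells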
RecA intein inh – Mtb RecA intein splicing inhibition; P9WHJ3; cell-free RecA intein splicing, fluorescence; inhibition, %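 (about 9 µM by stock and volumes)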; actives 0.75% (n = 290,000); in the data active means inhibition above about 30%; inconclusive means no clear call, values can overlap the other calls;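 further: 0% = vehicle wells and 100% = reference inhibitor control wells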
Target sequence (P9WHJ3 whole entry, looked up): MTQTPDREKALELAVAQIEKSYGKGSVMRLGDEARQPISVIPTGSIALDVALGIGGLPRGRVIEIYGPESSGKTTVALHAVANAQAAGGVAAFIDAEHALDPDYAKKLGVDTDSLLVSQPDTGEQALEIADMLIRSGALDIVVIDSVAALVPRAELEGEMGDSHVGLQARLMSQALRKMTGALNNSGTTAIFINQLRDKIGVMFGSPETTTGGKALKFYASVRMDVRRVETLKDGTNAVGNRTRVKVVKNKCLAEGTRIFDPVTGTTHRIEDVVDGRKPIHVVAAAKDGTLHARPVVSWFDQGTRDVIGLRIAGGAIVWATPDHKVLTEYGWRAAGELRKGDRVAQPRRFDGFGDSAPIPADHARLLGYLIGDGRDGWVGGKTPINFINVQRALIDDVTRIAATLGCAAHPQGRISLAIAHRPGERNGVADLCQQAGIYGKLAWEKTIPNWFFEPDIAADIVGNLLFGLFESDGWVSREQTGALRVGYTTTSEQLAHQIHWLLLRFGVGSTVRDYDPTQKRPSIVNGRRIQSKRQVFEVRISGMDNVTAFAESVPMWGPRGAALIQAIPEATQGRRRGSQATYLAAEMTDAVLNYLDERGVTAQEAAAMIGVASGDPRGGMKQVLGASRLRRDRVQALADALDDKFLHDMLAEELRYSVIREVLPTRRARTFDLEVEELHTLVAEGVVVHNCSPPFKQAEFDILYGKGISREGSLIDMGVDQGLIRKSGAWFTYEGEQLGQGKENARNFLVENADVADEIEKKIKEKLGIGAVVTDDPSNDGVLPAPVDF
Mtb H37Rv – M. tuberculosis H37Rv growth inhibitors, H37Rv strain (AID 1626); one-dose inhibition, % at 10 µM; IC50 in µM for titrated hits; actives 0.95% (n = 220,000); M. tuberculosis H37Rv growth inhibition; higher % means a stronger effect;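 active means confirmed in a dose series; inconclusive means inhibition above 80% but not taken into the dose series; inactive means below 80% or under 30% at every dose of the series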;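 further: bacteria incubated seven days before Alamar blue readout; 0% = bacteria only wells and 100% = bacteria with antibiotic wells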
Arbovirus inh repeat – also measured in Arbovirus inh; calls as there; inhibition, %; measured here: 10K subset replicate screen; many hits read low in the repeat;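 first of two repeat runs on a subset; 0% = infected and 100% = uninfected wells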
Starred values were filed as active, the others as inactive; i = inactive; ? = inconclusive; / = no result given.

SMILES | YopH inh | Mtb bLac sens | Arbovirus inh | RecA intein inh | Mtb H37Rv | others
COCCCNC(=S)N/N=C/c1cccc(OC)c1O | / | 96 | / | -8.2 | 46%
O=C(O)/C(=C\c1ccccc1OC(F)F)Sc1nnc(-c2ccc(F)cc2)o1 | / | -7 | -18 | 1.2 | -7%
COc1ccc(CC(=O)Nc2ccc(-c3ccc4nnc(C)n4n3)cc2)cc1OC | / | -10 | -1 | -0.5 | -3%
COc1ccc(OC)c(-n2c(SCC(=O)Nc3cccc(S(N)(=O)=O)c3)nc3ccccc3c2=O)c1 | / | -11 | / | -2.0 | -1%
N#CCOc1nc(N2CCCCC2)nc(N2CCCCC2)n1 | / | -5 | 17 | 4.8 | -4%
Cc1cccn2c(=O)c3cc(C(=O)NCCN4CCOCC4)c(=N)n(CCCN4CCOCC4)c3nc12 | / | -5 | / | i | /
C/C=C(\C)C(=O)Nc1cccc(C2=NOC3(C2)C[C@H](C(N)=O)N(C(=O)c2cc([N+](=O)[O-])cc([N+](=O)[O-])c2)C3)c1 (some centres undefined) | / | 100 | / | -2.7 | 11%
COc1cc(C2Nc3cccc4cccc(c34)N2)cc(OC)c1OC(C)=O | 41 | -18 | -5 | 0.5 | /
CCCN(CCC)CC(O)COc1ccc([N+](=O)[O-])cc1 (centres undefined) | -22 | -6 | 2 | -3.5 | -14%
CN(C1CCCCC1)S(=O)(=O)c1ccc2c(c1)c(=O)c(C(=O)NCCCN1CCCC1)cn2C | / | 1 | 1 | 3.3 | -4%
O=C(O)c1cnn2c(C(F)(F)F)cc(-c3ccco3)nc12 | -8 | 8 | 5 | -11 | -3%
CCOC(=O)[C@@H]1[C@H]2COc3ccc(Br)cc3[C@H]2N2C(=O)N(c3ccc(C)cc3)C(=O)[C@]12C | / | -1 | / | 11 | /
COc1ccc2ccccc2c1/C=N/NC(=O)c1cccc([N+](=O)[O-])c1 | / | 0 | / | 0.0 | /
CC(NC(=O)CCC(=O)Nc1ccccc1O)c1ccccc1 (centres undefined) | / | -8 | / | -0.4 | /
COc1ccc(CCNC(=O)CN(c2ccccc2OC)S(=O)(=O)c2ccc(C)cc2)cc1 | / | 3 | / | 2.2 | /
COc1ccc2c(CC(=O)NC(Cc3ccc(Cl)cc3)C(=O)O)cc(=O)oc2c1C (centres undefined) | / | -4 | / | -3.3 | /
CCOC(=O)/C=C(C)\C=C\c1c[nH]c2ccccc12 | / | 10 | / | 0.3 | /
CC(=O)Nc1ccc(S(=O)(=O)N(C)CC(=O)OCC(=O)NC(C)C23CC4CC(CC(C4)C2)C3)cc1 (centres undefined) | 3 | -7 | 3 | 3.4 | 9%
CNC(=O)c1ccc(-n2cccn2)nc1 | / | 5 | 8 | -5.3 | 9%
Cc1nc2oc3ccccc3c(=O)c2c(=O)n1Cc1ccccc1 | -31 | -8 | -6 | -0.1 | -9%
CCOC(CNC(=O)c1ccc2c(c1)nc(C)n2-c1cccc(F)c1)OCC | -1 | -14 | -2 | 20 | 6%
COc1ccc(Cc2nnc(SCC(=O)N(c3ccccc3)C(C)C)n(N)c2=O)cc1 | / | 3 | / | 5.6 | /
COc1cc(OC)c(-c2nc3c[n+](CC(=O)c4ccccc4)ccc3n2C)cc1OC | -31 | 3 | 2 | -2.3 | -4%
O=C(c1ccccc1)c1ccc(C(=O)N2CCN(c3ccccc3)CC2)cc1 | / | -2 | / | 3.9 | /
O=C(CN1c2cccc3cccc(c23)S1(=O)=O)Nc1ccc(S(=O)(=O)N2CCOCC2)cc1 | -18 | -3 | 7 | -11 | 8%

Continued; it opens with the 2 that closed the last part.
SMILES | YopH inh | Mtb bLac sens | Arbovirus inh | RecA intein inh | Mtb H37Rv | others
O=C(c1ccccc1)c1ccc(C(=O)N2CCN(c3ccccc3)CC2)cc1 | / | -2 | / | 3.9 | /
O=C(CN1c2cccc3cccc(c23)S1(=O)=O)Nc1ccc(S(=O)(=O)N2CCOCC2)cc1 | -18 | -3 | 7 | -11 | 8%
c1cnc2c(c1)ncc1cscc12 | -12 | 6 | 2 | -0.5 | 0%
COc1ccc(/C=N/NC(=O)CSc2n[nH]c(=O)[nH]c2=O)cc1 | -27 | -11 | 6 | -4.0 | 2%
O=C(CN1C(=O)CSC1=O)N1CCCC(Nc2ccc(F)cc2)C1 (centres undefined) | / | ? | / | 2.4 | /
O=C(Cc1cccc2ccccc12)Nc1c(F)cccc1F | / | 11 | / | -2.1 | /
NC(N)=NS(=O)(=O)c1ccc(NC(=S)NC(=O)Cc2ccc(Cl)cc2)cc1 | / | 13 | / | 2.1 | /
COc1ccc(C(C(=O)NC(C)(C)C)N(CCc2ccc(OC)c(OC)c2)C(=O)CCC(=O)Nc2cc(C)on2)cc1 (centres undefined) | / | -3 | / | 1.5 | /
CC1CCN(CC(=O)Nc2cc(C(F)(F)F)ccc2Cl)CC1 | -7 | 7 | -5 | 2.4 | -9%
CCSc1nnc(NC(=O)CSc2nnc(C)c(=O)n2N)s1 | / | -3 | 4 | 0.1 | -1%
Cn1cccc1Cc1nnc(SCC(=O)NC2CCCC2)n1CCc1ccccc1 | -48 | 5 | 7 | 4.5 | -3% | Arbovirus inh repeat=-1
Oc1nc(Nc2cccc(Cl)c2)sc1/C=C1\C=Nc2ccccc21 | -24 | 94 | -21 | -1.7 | -1%
Fc1ccc(-c2[nH]ncc2CN(CC2CCC2)CC2CCCO2)c(F)c1 (centres undefined) | / | -7 | -3 | -2.7 | -6%
Cc1cccc2c1-c1sc(C(=O)Nc3cccnc3)cc1CO2 | / | 2 | / | -16 | /
COCCNS(=O)(=O)c1ccc2c(c1)C(=O)c1cc(S(=O)(=O)NCCOC)ccc1-2 | -22 | 1 | 5 | -0.2 | -10% | Arbovirus inh repeat=2
CCc1ccccc1N1C(=O)C2CC=CCC2C1=O (centres undefined) | -11 | 6 | 3 | -1.0 | 1%
CC(C)(C)c1ccc(C2CC2C(=O)N/N=C\c2ccc[nH]2)cc1 (centres undefined) | / | 8 | -27 | 10 | -5%
CC(C)(C)c1ccc(OC(=O)Nc2ccc(O)c(C(=O)O)c2)cc1 | / | 4 | / | 1.6 | 2%
COc1ccc(CC(=O)NNS(=O)(=O)c2cccc([N+](=O)[O-])c2)cc1OC | / | 9 | / | -4.4 | /
CC(=O)c1c(C)n(-c2ccccc2)c2ccc(O)cc12 | 2 | -20 | 8 | -2.1 | 0%
C/C(N)=C(/C#N)C(=O)COC(=O)CNS(=O)(=O)c1ccc(C)cc1 | / | -19 | 1 | -1.0 | 4%
CCOc1nc(OCC)nc(N2CCC(C)CC2)n1 | -11 | -3 | 10 | 6.3 | -1%
COc1ccc(C2/C=C\CN(C(=O)C3CCCC3)[C@H](Cc3ccccc3)C(=O)N2Cc2ccc(F)cc2)cc1 (some centres undefined) | / | -8 | / | 3.4 | 12%
CCOc1ccc(CC(=O)NCc2cn3c(C)csc3n2)cc1 | -10 | -5 | 0 | 2.0 | 14% | Arbovirus inh repeat=-2
Clc1ccc(Cl)c(OCc2cc(-c3ccccc3Cl)on2)c1 | -30 | -5 | -15 | -2.2 | 4%
CCOC(=O)c1[nH]c2ccc(OC)cc2c1NC(=O)CN1CCc2ccccc2C1 | -34 | -3 | -13 | 9.4 | -10%
CCC(=O)NCCc1c[nH]c2ccccc12 | -12 | -2 | -3 | 0.2 | -2%

The list goes on:
SMILES | YopH inh | Mtb bLac sens | Arbovirus inh | RecA intein inh | Mtb H37Rv | others
CC1CCN(CC(O)COCCC23CC4CC(CC(C4)C2)C3)CC1 (centres undefined) | 6 | 6 | -37 | / | 8%
O=C(c1cc(S(=O)(=O)N2CCOCC2)ccc1F)N1CCC2(CC1)OCCO2 | -30 | -3 | -2 | -0.5 | -3%
Cc1cc(CNCc2c(C(=O)N3CCCCCCC3)nc3ccc(Cl)cn23)nn1C | / | 0 | 3 | 6.2 | -10%
O=C(O)c1cc(O)ccc1-c1ccc(O)cc1 | -10 | -8 | -1 | 6.7 | 1%
O=C(O)C1CCCCC1C(=O)Nc1ccccn1 (centres undefined) | 6 | -5 | 9 | -1.6 | -5%
Cc1oc(-c2ccccc2F)nc1CS(=O)CC(=O)N1CCC2(CC1)OCCO2 (centres undefined) | -48 | -3 | 6 | -1.6 | -15%
CCOc1ccccc1N1CCN(C(=S)NCc2ccc(Cl)cc2)CC1 | / | 7 | -23 | 6.3 | 8%
CC1Cc2ccccc2N1Cc1cccc([N+](=O)[O-])c1 (centres undefined) | / | -1 | / | -0.1 | /
Cc1ccccc1Nc1nnc(SCc2nc3ccccc3c(=O)[nH]2)s1 | / | 3 | -11 | -2.7 | -7%
CCCCC(c1nnnn1CCOC)N1CCN(c2cccc(OC)c2)CC1 (centres undefined) | -2 | / | 0 | -1.3 | 1%
CCOC(=O)c1nnc(-c2ccccc2)[nH]c1=O | / | 3 | -1 | -1.9 | 7%
COc1ccc(NC(=O)C2CC(c3cc(OC)c(OC)c(OC)c3)=NO2)cc1OC (centres undefined) | -37 | -1 | 11 | 4.8 | 3%
COc1cc2[nH]c3c(OC)ncnc3c2cc1OC | / | -1 | / | -0.8 | /
O=C1NC(=O)/C(=C/c2cc3c(cc2Br)OCO3)S1 | / | -5 | / | -1.2 | /
Cc1ccc2nc(SCC(=O)c3c[nH]c4ccccc34)[nH]c2c1 | / | -7 | -2 | 5.4 | 6%
Cc1cccc(CCNS(=O)(=O)c2ccc(S(=O)(=O)NC3CCCC3)cc2)c1 | -37 | 5 | 9 | 1.6 | -1%
COCc1[nH]nc2c1C(c1sccc1C)C(C#N)=C(N)O2 (centres undefined) | -38 | 9 | -4 | -1.1 | /
O=C(NNC(=S)Nc1ccc(Br)cc1)c1cccnc1 | / | -8 | / | 4.9 | /
Cc1ccc(-c2cccc(NC(=O)C3C4C=CC(C4)C3C(=O)O)c2)o1 (centres undefined) | -24 | 98 | 4 | 0.7 | ?
Cc1ccccc1N/N=C/c1ccc(N2CCOCC2)cc1 | -34 | 25 | -36 | 12 | -6%
COc1ccccc1CN(CC(=O)NCC1CCCO1)C(=O)CNS(=O)(=O)c1ccc(C)cc1 (centres undefined) | -38 | -10 | 2 | -0.6 | -2%
CSc1nc(O)c(N=Nc2ccc(F)cc2F)c(=O)[nH]1 | / | 0 | / | 4.9 | /
Cn1cnnc1Sc1ccc(C(=O)OCC(=O)Nc2ccccc2)cc1[N+](=O)[O-] | -18 | 4 | -1 | 2.3 | -3%

Among those listed so far, 10 have an aryl thioether with sulfur outside any ring:
SMILES | YopH inh | Mtb bLac sens | Arbovirus inh | RecA intein inh | Mtb H37Rv | others
O=C(O)/C(=C\c1ccccc1OC(F)F)Sc1nnc(-c2ccc(F)cc2)o1 | / | -7 | -18 | 1.2 | -7%
COc1ccc(OC)c(-n2c(SCC(=O)Nc3cccc(S(N)(=O)=O)c3)nc3ccccc3c2=O)c1 | / | -11 | / | -2.0 | -1%
COc1ccc(Cc2nnc(SCC(=O)N(c3ccccc3)C(C)C)n(N)c2=O)cc1 | / | 3 | / | 5.6 | /
COc1ccc(/C=N/NC(=O)CSc2n[nH]c(=O)[nH]c2=O)cc1 | -27 | -11 | 6 | -4.0 | 2%
CCSc1nnc(NC(=O)CSc2nnc(C)c(=O)n2N)s1 | / | -3 | 4 | 0.1 | -1%
Cn1cccc1Cc1nnc(SCC(=O)NC2CCCC2)n1CCc1ccccc1 | -48 | 5 | 7 | 4.5 | -3% | Arbovirus inh repeat=-1
Cc1ccccc1Nc1nnc(SCc2nc3ccccc3c(=O)[nH]2)s1 | / | 3 | -11 | -2.7 | -7%
Cc1ccc2nc(SCC(=O)c3c[nH]c4ccccc34)[nH]c2c1 | / | -7 | -2 | 5.4 | 6%
CSc1nc(O)c(N=Nc2ccc(F)cc2F)c(=O)[nH]1 | / | 0 | / | 4.9 | /
Cn1cnnc1Sc1ccc(C(=O)OCC(=O)Nc2ccccc2)cc1[N+](=O)[O-] | -18 | 4 | -1 | 2.3 | -3%

These rows are one share of the data (hit frequency here may not be typical).
